From PubChem
CatB inh = human cathepsin B inhibition | P07858 | purified cathepsin B, fluorogenic substrate, fluorescence | inhibition, %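 (tested at 10 µM)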 | actives 0.1% (n = 63,000); in the data active = inhibition above about 21%;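 also: 0% = enzyme with no compound and 100% = no enzyme blank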
CatS inh = inhibitors of human cathepsin S; inhibition, %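 (tested at 5 µM per compound within 10-compound mixtures)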; recombinant cathepsin S, AMC dipeptide fluorescence, pooled mixtures; AID 501; P25774; actives 0.06% (n = 62,000); in the data active = inhibition above about 32%, passing the limit was not always enough;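 also: 0% = enzyme without compound and 100% = blank without enzyme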
Target sequence (P25774 115-331 limits assumed): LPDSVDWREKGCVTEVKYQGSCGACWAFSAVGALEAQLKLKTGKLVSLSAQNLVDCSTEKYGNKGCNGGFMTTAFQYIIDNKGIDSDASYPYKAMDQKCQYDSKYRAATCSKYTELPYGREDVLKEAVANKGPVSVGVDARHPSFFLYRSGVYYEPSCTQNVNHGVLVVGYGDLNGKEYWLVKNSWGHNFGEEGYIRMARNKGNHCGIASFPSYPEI
HER2 expr 66K = Her2 kinase expression inhibition | P04626 | SKBR-3 HER2 protein level, AlphaScreen, 18-24 h; hits give low values | HER2 level % of control, % at 10 µM | actives 0.69% (n = 65,000) | AID 645;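 active = HER2 level under 5% of the carrier-only control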;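 also: 100% = DMSO carrier and 0% = 500 nM PU-H71 HSP90 inhibitor; lower value means stronger loss of Her2 protein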
CatL inh = inhibitors of human cathepsin L; purified cathepsin L, fluorogenic substrate, fluorescence; inhibition, %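 (tested at 10 µM)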; actives 0.17% (n = 58,000); AID 460; in the data active = inhibition above about 45%;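 also: 0% = enzyme with no compound and 100% = no enzyme blank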
Target sequence (P07711 114-288 limits assumed): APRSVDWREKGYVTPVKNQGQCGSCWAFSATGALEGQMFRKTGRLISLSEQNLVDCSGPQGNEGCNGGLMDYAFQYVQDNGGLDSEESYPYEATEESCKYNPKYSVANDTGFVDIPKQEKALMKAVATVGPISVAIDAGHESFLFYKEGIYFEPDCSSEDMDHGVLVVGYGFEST
Target sequence (P07711 292-333 limits assumed): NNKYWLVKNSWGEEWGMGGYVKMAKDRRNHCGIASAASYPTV
CatB mixtures = human cathepsin B inhibition by mixtures; AID 488; inhibition, %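 (ten-compound pools at 5 µM per compound and 50 µM total)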; P07858; Purified cathepsin B, AMC dipeptide fluorescence, compound mixtures; actives 0.06% (n = 62,000); in the data active = inhibition above about 22%, passing the limit was not always enough;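 also: 0% = enzyme without compound and 100% = no enzyme blank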
Cathepsin G inh = cathepsin G (human) inhibition | purified enzyme, AMC-tetrapeptide fluorescence, pooled mixtures | inhibition, % at 5 µM (by protocol) | actives 0.2% (n = 62,000) | AID 581;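 active = inhibition above 20% in each of the two mixture wells holding the compound; inactive = inhibition of 20% or less in either well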;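 also: 0% = enzyme control without mixture and 100% = blank lacking enzyme; strong numbers were not always called active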
Target sequence (P08311 21-244 limits assumed): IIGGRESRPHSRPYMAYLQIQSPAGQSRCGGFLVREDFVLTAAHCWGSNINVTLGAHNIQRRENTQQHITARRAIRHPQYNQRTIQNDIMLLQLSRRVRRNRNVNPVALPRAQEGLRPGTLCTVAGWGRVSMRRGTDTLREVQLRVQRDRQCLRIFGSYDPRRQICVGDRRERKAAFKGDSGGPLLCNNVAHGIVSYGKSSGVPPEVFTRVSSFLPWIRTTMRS
C1s inh = blocks human complement C1s protease activity. P09871. purified C1s, fluorogenic AMC substrate, pooled mixtures. mean inhibition % of two 10-compound mixtures (hits give high values), % at 5 µM (by protocol). actives 0.16% (n = 62,000);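 active = inhibition above 20% in each of the two 10-compound mixture wells holding the compound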;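 also: 0% = enzyme wells lacking compound mixture and 100% = no-enzyme blank wells; some compounds called inactive have numbers as strong as hits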
* marks the source's active call; other numbers are inactive results; / = not tested or not shown.

SMILES | CatB inh | CatS inh | HER2 expr 66K | CatL inh | CatB mixtures | Cathepsin G inh | C1s inh
COc1ccccc1-c1noc(CCC(=O)Nc2cccc(C)c2)n1 | 4 | -3 | 76 | 17 | -3 | 6 | -6
CC(C)CC(NC(=O)OC(C)(C)C)C(=O)NC(C(=O)N1CCCC1C(N)=O)C(C)C (stereo not drawn) | 2 | -6 | 77 | -8 | 3 | 4 | 11
CC1CN(C(=O)CN2C(=O)NC3(CCCCCCC3)C2=O)CC(C)O1 (stereo not drawn) | 2 | -3 | 137 | 9 | -1 | 0 | -60
COc1cc(-c2nc3ccccn3c2NCC2CCCO2)ccc1O (stereo not drawn) | 5 | 15 | 108 | -183 | 1 | -3 | -21
O=C(O)c1cc(O)ccc1-c1ccc(O)cc1 | -2 | 16 | 97 | 23 | 0 | 0 | 1
Cc1ccc(-n2nnc3ccccc3c2=O)cc1C | -5 | -2 | 142 | -8 | 4 | 1 | -30
COc1ccccc1OCCSc1ncnc2nc[nH]c12 | 3 | 8 | 98 | 16 | 0 | 9 | 4
Cc1cc(C(=O)NCCCN2CCCC2=O)cs1 | 0 | -1 | 96 | 1 | 5 | 8 | 7
COc1cccc(NC(=O)CCN2CCN(C)CC2)c1 | -2 | -9 | 104 | 15 | -5 | 6 | -19
Cc1noc(C)c1S(=O)(=O)N(CC(=O)N1CCCCCC1)c1ccc(C(C)C)cc1 | 2 | 0 | / | -4 | 3 | 9 | 6
c1csc(-c2nn3c(Cn4nnc5ccccc54)nnc3s2)c1 | 1 | 2 | 57 | 6 | -1 | 0 | -4
COc1cc(NC(=O)c2c(F)c(F)c(F)c(F)c2F)c(OC)cc1Cl | 0 | 0 | 45 | 5 | -2 | -6 | -34
O=S(=O)(NCCCN1CCN(c2ccccc2F)CC1)c1cccc2cccnc12 | 7 | 16 | 79 | 10 | 6 | 12 | 14
c1ccc2c(CCNc3ncnc4nc[nH]c34)c[nH]c2c1 | 10 | 13 | 73 | 17 | 7 | -10 | -24
c1ccc(CSc2ncn(-c3ccccc3)n2)cc1 | -5 | -12 | 93 | -1 | -1 | 3 | -2
CCCCS(=O)(=O)NC1=NCN(CCOC(=O)c2ccccc2)CN1 | -5 | -5 | 66 | -10 | 5 | 2 | 5
O=C(CCSc1nc(-c2ccco2)cc(C(F)(F)F)n1)Nc1ccc2c(c1)OCO2 | 1 | 12 | 95 | 5 | 2 | 44 | 10
Fc1ccc(C(c2nnnn2C2CCCC2)N2CCN(Cc3ccccc3)CC2)cc1 (stereo not drawn) | 4 | 7 | 147 | 10 | 2 | 9 | 2
CCCCNc1nc2c(c(=O)n(C)c(=O)n2C)n1CCC | -2 | 15 | 99 | / | 2 | 8 | 7
O=C(NCCc1c[nH]c2ccccc12)c1cnc2sccn2c1=O | 0 | -2 | 70 | -7 | 0 | 3 | 4
CC(=O)Nc1ccc(C(=O)n2nc(C)cc2C)cc1 | -1 | 5 | 89 | -14 | 6 | 2 | 6
CCCSCCCNC(=O)CC1Oc2ccccc2NC1=O (stereo not drawn) | -4 | 8 | 89 | / | -2 | -1 | -10
CCCCS(=O)(=O)NC1=NCN(CCO)CN1 | -3 | -6 | 107 | -6 | -3 | -4 | -18
O=C(CCS(=O)(=O)c1ccccc1)Nc1nc2c(s1)CCCC2 | 4 | 16 | 76 | 5 | 2 | -4 | -3
O=C(Nc1ccc(C2CCCCC2)cc1)C1CCCN(c2ncccn2)C1 (stereo not drawn) | 5 | 1 | 81 | 20 | -2 | 7 | -17
Cc1cnc(C(=O)NCCc2ccc(S(=O)(=O)NC(=O)NC3CCCCC3)cc2)cn1 | -1 | -9 | 104 | 4 | -7 | 1 | 0
O=S(=O)(c1cccc(C(F)(F)F)c1)N1CCC(O)(c2cccnc2)CC1 | 1 | -3 | 73 | -1 | 6 | 11 | 18
c1nc(N2CCN(Cc3ccc4c(c3)OCO4)CC2)c2[nH]cnc2n1 | -7 | -7 | 93 | -10 | 2 | -2 | 1
CCNC(=O)CC1C(=O)N(c2ccc(C)cc2)C(=O)N1Cc1ccccn1 (stereo not drawn) | -3 | 7 | 108 | -3 | -4 | 1 | 2
Cc1ccc(-n2c(C)nc3c(cnn3-c3ccc(F)cc3)c2=O)cc1C | 3 | 2 | 49 | / | 5 | 12 | 15

Reformatted: entries from further up.
SMILES	CatB inh	CatS inh	HER2 expr 66K	CatL inh	CatB mixtures	Cathepsin G inh	C1s inh
O=C(CCSc1nc(-c2ccco2)cc(C(F)(F)F)n1)Nc1ccc2c(c1)OCO2	1	12	95	5	2	44	10
O=C(Nc1ccc(C2CCCCC2)cc1)C1CCCN(c2ncccn2)C1 (stereo not drawn)	5	1	81	20	-2	7	-17

Other records follow.
SMILES | CatB inh | CatS inh | HER2 expr 66K | CatL inh | CatB mixtures | Cathepsin G inh | C1s inh
CN1CCN(c2nc(-c3ccccc3)nc3c2oc2ccccc23)CC1 | -6 | 14 | 100 | 1 | 5 | 0 | 0
CCSCCOC(=O)C1=C(C)NC(=O)NC1c1cc(OC)ccc1OC (stereo not drawn) | 0 | -4 | 117 | -2 | -2 | -4 | -2
Cc1ccc(C(=O)CSC2=C(C#N)C(c3ccco3)C3=C(CCCC3=O)N2)cc1 (stereo not drawn) | 3 | / | 49 | -7 | / | / | /
OC1CCN(c2ncnc3nc[nH]c23)CC1 | -4 | -3 | 101 | -8 | 2 | -2 | -9
O=C(Nc1nc(-c2ccncc2)cs1)c1ccco1 | 2 | 2 | 80 | 15 | 4 | 7 | 10
O=C(Nc1ccccn1)C1CCN(S(=O)(=O)c2cccs2)CC1 | 4 | 6 | 79 | 8 | 5 | -12 | -28
O=C(NCc1cccs1)C1CC(=O)N(c2ccc(F)cc2)C1 (stereo not drawn) | -2 | 8 | 123 | -4 | -5 | 0 | -22
O=C(COC(=O)CCc1c[nH]c(=O)[nH]1)Nc1cccc(Cl)c1 | -1 | 3 | 113 | 13 | -4 | -1 | -20
O=C(CN1CCc2ccccc2C1)Nc1ccccc1N1CCCCCC1 | 2 | -13 | 90 | / | -1 | 0 | -42
Cc1ccc(NC(=O)OCC(F)(F)C(F)F)cc1NC(=O)OCC(F)(F)C(F)F | -3 | 1 | 115 | -5 | 6 | 4 | 4
COc1ccc(-c2nc(N3CCOCC3)nc3n[nH]c(N)c23)cc1 | 2 | -5 | 61 | -3 | -1 | -3 | -54
Cc1cc(NC(=O)CSc2n[nH]c(CC(C)C)n2)no1 | -2 | 5 | 55 | 19 | 5 | -1 | -28
Cc1ccc(Cl)cc1N1CCN(Cc2nnnn2Cc2ccco2)CC1 | 3 | -6 | 91 | 3 | 1 | -3 | -12
COc1cc(NC(=O)N[C@H](C(=O)O)C(C)C)cc(OC)c1 | 1 | -7 | 153 | / | 0 | 8 | 12
O=S(=O)(Nc1cccnc1)c1ccc2c(c1)OCCO2 | 3 | 4 | 128 | 6 | 3 | 4 | -35

Overlap with the part before: 5 compounds; new compounds follow.
SMILES | CatB inh | CatS inh | HER2 expr 66K | CatL inh | CatB mixtures | Cathepsin G inh | C1s inh
COc1ccc(-c2nc(N3CCOCC3)nc3n[nH]c(N)c23)cc1 | 2 | -5 | 61 | -3 | -1 | -3 | -54
Cc1cc(NC(=O)CSc2n[nH]c(CC(C)C)n2)no1 | -2 | 5 | 55 | 19 | 5 | -1 | -28
Cc1ccc(Cl)cc1N1CCN(Cc2nnnn2Cc2ccco2)CC1 | 3 | -6 | 91 | 3 | 1 | -3 | -12
COc1cc(NC(=O)N[C@H](C(=O)O)C(C)C)cc(OC)c1 | 1 | -7 | 153 | / | 0 | 8 | 12
O=S(=O)(Nc1cccnc1)c1ccc2c(c1)OCCO2 | 3 | 4 | 128 | 6 | 3 | 4 | -35
COc1ccc(CCNC(=O)Cn2nnc(-c3ccc(N4CCOCC4)cc3)n2)cc1OC | 0 | 0 | 97 | -2 | 6 | 13 | 16
CCCCC(=O)Nc1ncc2c(n1)CC(C)(C)CC2=O | 7 | 10 | 101 | -3 | 1 | 5 | -41
CSc1ccc(Cn2nnc(C(=O)NCc3ccccc3)c2N)cc1 | -2 | -10 | 90 | 4 | 6 | -2 | 2
CC(=O)Nc1cc2c(cc1C(=O)c1ccccc1)OCCO2 | 2 | -5 | 86 | / | -10 | -10 | -158
Cc1onc(-c2ccccc2)c1C(=O)Nc1nnc(-c2ccncc2)s1 | 5 | 7 | 91 | / | -2 | -4 | -27
O=C(CCN1C(=O)C2(OCCO2)c2ccccc21)c1ccccc1 | -3 | 5 | 79 | 22 | -7 | 10 | -13
O=C(CSc1nnc(-c2cccnc2)o1)OC1CCCCC1 | 4 | -9 | 97 | 3 | 4 | 12 | 15
O=C(COc1ccccc1)N1CCN(C(=O)Cc2ccccc2)CC1 | -2 | 1 | 107 | / | 1 | 8 | 5
CC1(C)OC(=O)C(C(c2ccccc2)C(C#N)C(N)=O)=C(O)O1 (stereo not drawn) | -1 | -2 | 68 | -10 | 6 | 10 | 5
COc1ccc(NC(=O)CC2Oc3ccccc3NC2=O)cc1 (stereo not drawn) | 2 | -7 | 91 | -3 | -6 | 9 | -3
CCOc1ccccc1CNc1nc2nc3c(c(=O)n2[nH]1)CCC3 | -1 | -2 | 83 | 4 | 1 | 10 | 13
COc1ccc(C(=O)N(CN2CCCC2=O)c2cc(C)on2)cc1OC | 2 | -7 | 81 | -13 | 4 | 7 | 3
N#Cc1ccsc1NC(=O)COc1ccc(-c2nnco2)cc1 | -1 | -2 | 126 | 6 | 6 | -33 | 0
COc1ccc(CNc2nc3c(c(=O)n(Cc4ccc(Cl)cc4)c(=O)n3C)n2C)cc1 | -3 | 0 | 97 | 2 | 0 | 0 | -2
CC1=C(C(N)=O)C(c2cccc(OCc3ccccc3)c2)n2nnnc2N1 (stereo not drawn) | 2 | -2 | 86 | -2 | 3 | 9 | 12
CCOC(=O)N1CCN(C(=O)Nc2ccc3nc(C)sc3c2)CC1 | -1 | 1 | 105 | 18 | 4 | 12 | 13
COc1ccc2nc3oc(C(=O)NCc4cccs4)cc3cc2c1 | -1 | -7 | 93 | / | -5 | -14 | -65
CCOC(=O)c1nnn(-c2nonc2N)c1-c1ccc(OC)cc1 | 0 | 2 | 81 | 0 | 4 | 7 | 2
CC(Oc1ccccc1)C(=O)Nc1ccc(C(N)=O)cc1 (stereo not drawn) | / | 2 | 81 | / | 5 | 9 | 14
COC(=O)c1ccccc1NC(=O)COc1ccc(S(=O)(=O)N2CCCC2)cc1C | -5 | 1 | 40 | 2 | -6 | 1 | -1
O=C(c1ccccc1)c1nc[nH]c1C(=O)Nc1ccccc1 | 0 | 4 | 103 | 9 | -6 | 8 | -6
CCN1CCN(CCCNC(=O)c2cc3cc4ccc(OC)cc4nc3o2)CC1 | -16 | -6 | 85 | / | -7 | -8 | -199
Cc1cccc(Nc2ncnc3nc[nH]c23)c1C | -1 | -6 | 103 | / | -1 | 0 | -11
CCCCN(CC)S(=O)(=O)c1ccc(C(=O)Nc2nnc(CSC)o2)cc1 | 3 | -3 | 64 | 9 | 3 | 11 | 0
COc1ccc(-c2ccc(-c3nnc(-c4ccncc4)o3)cc2)cc1 | -2 | 2 | 119 | -3 | -9 | 9 | -3
CC1CCCCC1NC(=O)Cn1[nH]c(=O)c2ccccc2c1=O (stereo not drawn) | -6 | 0 | 91 | -15 | 4 | -1 | 1
CCc1ccc(N2CC(C(=O)NC3=NCCS3)CC2=O)cc1 (stereo not drawn) | 4 | 1 | 101 | / | 8 | 9 | 53
Cc1nc2cc(C(=O)O)ccc2n1-c1ccccc1 | -1 | 4 | 115 | -1 | 1 | 6 | 3
CCC(=O)Nc1nc2ccccc2n1CCN(C)C | 1 | / | 147 | -4 | / | / | /
COc1ccc(N=CC2=C(O)CC(C)(C)CC2=O)cc1 | / | -7 | 102 | -10 | 6 | 11 | 9
CCOC(=O)Cn1c(=O)n(C2CCCC2)c(=O)c2ccccc21 | 2 | -1 | 86 | 13 | 1 | 10 | 13
Nn1c(SCC(=O)Nc2ccc3c(c2)OCO3)nnc1-c1ccncc1 | -2 | -2 | 106 | -1 | 4 | -1 | 4
CSCC[C@@H](C(=O)O)N1Cc2ccccc2C1=O | 1 | -6 | 93 | -3 | 0 | 2 | 2
Cc1occc1C(=O)Nc1nnc(-c2ccncc2)s1 | -4 | 4 | 95 | 3 | 8 | 39 | 7
N#Cc1c(N)sc2c1CCN(C(=O)OCc1ccccc1)C2 | / | 1 | 80 | / | 2 | 11 | 0
c1cc(-c2nnc(-c3ccncc3)o2)ccn1 | / | 7 | 103 | 14 | 6 | -2 | -1

These rows are one share of the data. The share of hits here may be higher or lower than overall.
